Vaccinia inh – blocks a specific stage of Vaccinia orthopoxvirus infection, primary screen, cell-based, single point; Vaccinia-infected cells, mCherry/Venus stage reporter fluorescence; hits give low values; some inactives read as strong as hits; activity change (mCherry), % (test concentration not listed); 0.01% of 89,000 active; AID 1053133, 2014;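 active = mCherry past -33% and 40 or more points under the early reporter, replicates agreeing; inconclusive = past -33% without that gap or agreement; tested in A549 cells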;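 also: scaled between vehicle wells and reference inhibitor wells; 23 nL library stock went into each well; one replicate is shown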
Vaccinia inh Venus – second read-out of Vaccinia inh, no call of its own (marks repeat the call); activity change (Venus), %; measured here: Venus reporter, other viral stage;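 negative = less Venus signal; first of two replicates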
Starred values were filed as active, the others as inactive; ? = inconclusive; / = not tested or not shown. Only part of the results is shown, so the mix of outcomes need not match the whole.

molecule	Vaccinia inh	Vaccinia inh Venus
CO[C@H]1CN(C)C(=O)c2cc(NC(=O)C3CC3)ccc2OC[C@H](C)N(Cc2ccncc2)C[C@H]1C	-10	-9
C[C@H]1CCCCO[C@H](CN(C)C(=O)Nc2ccccc2)[C@@H](C)CN([C@@H](C)CO)C(=O)c2cc(NC(=O)Nc3ccc4c(c3)OCO4)ccc2O1	1	-2
CO[C@H]1CN(C)C(=O)c2cc(NC(=O)Nc3ccccc3F)ccc2OC[C@@H](C)N(CCC(F)(F)F)C[C@@H]1C	-22	-11
COc1ccccc1-c1ccc2c(c1)[C@H]1[C@H](CCN1S(=O)(=O)c1cn(C)cn1)[C@H](CO)N2	-32	-22
COc1ccc(S(=O)(=O)N(C)C[C@@H]2Oc3ccc(NC(=O)CCC(F)(F)F)cc3CC(=O)N([C@H](C)CO)C[C@@H]2C)cc1	-8	-7
COc1ccc(CN(C)C[C@@H]2Oc3ccc(NC(=O)Cc4cn(C)c5ccccc45)cc3C(=O)N([C@@H](C)CO)C[C@H]2C)cc1	-21	-20
Cc1noc(C)c1NC(=O)Nc1ccc2c(c1)CC(=O)N([C@@H](C)CO)C[C@@H](C)[C@H](CN(C)C(=O)Nc1ccccc1)O2	21	19
CCN(C[C@@H]1[C@@H](c2ccccc2)[C@H](CO)N1C(C)=O)C(=O)c1ccccn1	8	1
CC(C)C(=O)Nc1ccc2c(c1)C(=O)N(C)[C@H]1CC[C@H](CC(=O)NCc3ccccc3)O[C@@H]1CO2	-7	1
C[C@@H]1CN([C@H](C)CO)C(=O)c2cc(NC(=O)C3CCCCC3)ccc2O[C@H]1CN(C)CC1CCCCC1	0	-2
Cc1noc(C)c1NC(=O)N[C@@H]1CC[C@@H](CCNC(=O)C2CCOCC2)O[C@H]1CO	0	-2
N#C[C@@H]1[C@@H](c2ccc(C#Cc3cccnc3)cc2)[C@@H](CO)N1C(=O)C1CC1	18	9
COc1ccc(S(=O)(=O)Nc2ccc3c(c2)C(=O)N([C@@H](C)CO)C[C@@H](C)[C@H](CN(C)C(=O)NC2CCCCC2)OCCCC[C@@H](C)O3)cc1	-32	-22
C[C@@H]1CN([C@@H](C)CO)C(=O)c2cccc(NS(C)(=O)=O)c2O[C@H]1CN(C)CC1CCCCC1	2	-3
C[C@@H]1CN([C@H](C)CO)C(=O)Cc2cc(NS(=O)(=O)c3ccc(F)cc3)ccc2O[C@@H]1CN(C)S(=O)(=O)c1cn(C)cn1	12	4

New compounds follow
molecule	Vaccinia inh	Vaccinia inh Venus
O=C(C1CCOCC1)N1CC(=O)N2[C@H](CO)[C@@H](c3ccc(-c4cccnc4)cc3)[C@@H]2C1	25	16
C[C@@H]1CN([C@@H](C)CO)C(=O)c2cccc(NC(=O)CCCCCC(=O)Nc3ccccc3N)c2O[C@H]1CN(C)C(=O)Nc1cccc2ccccc12	9	4
Cc1ccc(S(=O)(=O)Nc2ccc3c(c2)C(=O)N([C@H](C)CO)C[C@@H](C)[C@@H](CN(C)S(=O)(=O)c2cccs2)OCCCC[C@H](C)O3)cc1	-22	-5
COc1ccc(C#Cc2ccc([C@H]3[C@@H](CO)N4CCCCN(S(=O)(=O)c5ccccc5)C[C@H]34)cc2)cc1	-27	-20
O=S(=O)(c1cccs1)N1CCCCN2[C@H](C1)[C@H](c1ccc(/C=C/c3ccccc3)cc1)[C@@H]2CO	7	5
O=C(c1ccc2c(c1)OCO2)N1CCCCN2[C@H](CO)[C@@H](c3ccc(-c4ccccc4)cc3)[C@H]2C1	-14	-24
C[C@H]1CN([C@@H](C)CO)C(=O)c2cc(NC(=O)Nc3cccc4ccccc34)ccc2O[C@H]1CN(C)Cc1ccc(C(=O)O)cc1	1	0
COc1ccc(S(=O)(=O)N2C[C@@H](O)COC[C@@H]3O[C@H](CC(=O)N(C)C)CC[C@H]32)cc1	22	17
C[C@@H](NC(=O)C[C@@H]1C=C[C@@H](NC(=O)Nc2ccc3c(c2)OCO3)[C@H](CO)O1)c1ccccc1	0	2
CO[C@@H]1CN(C)C(=O)c2cc(NC(=O)CC(F)(F)F)ccc2OC[C@@H](C)N(C(=O)C2CC2)C[C@H]1C	2	8
COc1ccccc1CN1[C@@H]2CN(C(=O)C3CCOCC3)c3ccccc3[C@@H]2[C@@H]1CO	13	3
O=C(Cc1ccccc1)N1CC2(C1)[C@H](c1ccccc1)[C@@H](CO)N2Cc1cccc(F)c1	-14	11
C[C@@H]1CN([C@H](C)CO)C(=O)c2cc(NS(=O)(=O)c3ccc(F)cc3)ccc2O[C@H]1CN(C)C(=O)Nc1ccc2c(c1)OCO2	9	-1
C[C@H]1CN([C@@H](C)CO)C(=O)c2cccc(NS(=O)(=O)c3ccc(F)cc3)c2O[C@H]1CN(C)CC1CCCCC1	6	1
C[C@@H](NC(=O)[C@@H]1N[C@@H]2c3ccc(-c4cncnc4)c(=O)n3C[C@@H]2[C@H]1CO)c1ccccc1	0	2

Rewritten with each value named: four of the compounds above
CO[C@@H]1CN(C)C(=O)c2cc(NC(=O)CC(F)(F)F)ccc2OC[C@@H](C)N(C(=O)C2CC2)C[C@H]1C
  Vaccinia inh: 2
  Vaccinia inh Venus: 8
O=C(C1CCOCC1)N1CC(=O)N2[C@H](CO)[C@@H](c3ccc(-c4cccnc4)cc3)[C@@H]2C1
  Vaccinia inh: 25
  Vaccinia inh Venus: 16
C[C@@H](NC(=O)[C@@H]1N[C@@H]2c3ccc(-c4cncnc4)c(=O)n3C[C@@H]2[C@H]1CO)c1ccccc1
  Vaccinia inh: 0
  Vaccinia inh Venus: 2
COc1ccccc1CN1[C@@H]2CN(C(=O)C3CCOCC3)c3ccccc3[C@@H]2[C@@H]1CO
  Vaccinia inh: 13
  Vaccinia inh Venus: 3

The list goes on:
molecule	Vaccinia inh	Vaccinia inh Venus
O=C(C[C@H]1C[C@@H]2c3cc(NC(=O)c4cccnc4)ccc3O[C@@H]2[C@@H](CO)O1)NCCN1CCCCC1	3	-4
Cc1ccc(S(=O)(=O)N(C)C[C@@H]2Oc3cc(C4=CCCC4)ccc3S(=O)(=O)N([C@H](C)CO)C[C@H]2C)cc1	-28	-9
O=C(O)C[C@H]1C[C@H]2c3cc(NC(=O)C4CCOCC4)ccc3O[C@H]2[C@H](CO)O1	1	-3
O=C(C[C@H]1C[C@@H]2c3cc(NC(=O)Nc4ccccc4)ccc3O[C@@H]2[C@@H](CO)O1)NCC(F)(F)F	20	13
C[C@H](CO)N1C[C@H](C)[C@H](CN(C)S(=O)(=O)c2cn(C)cn2)Oc2ncc(-c3cccc(F)c3)cc2C1=O	17	10
CCCC#Cc1ccc2c(c1)O[C@H](CN(C)C(=O)NC(C)C)[C@@H](C)CN([C@H](C)CO)S2(=O)=O	-26	-18
COc1ccc(S(=O)(=O)N(C)C[C@@H]2Oc3ccc(NC(=O)Nc4cccc5ccccc45)cc3CC(=O)N([C@H](C)CO)C[C@H]2C)cc1	13	9
C[C@@H]1CN([C@H](C)CO)C(=O)c2cc(C#Cc3cccc(F)c3)cnc2O[C@@H]1CN(C)C(=O)c1ccccc1F	-29	-25
CC(=O)N1[C@H](CO)[C@H](c2ccccc2)[C@H]1CNC(=O)c1ccncc1	-2	4
COc1ccccc1NC(=O)N1CCCCN2[C@@H](CO)[C@@H](c3ccc(-c4ccccc4)cc3)[C@@H]2C1	?	/
CC(C)CNC(=O)[C@@]1(c2ccc([N+](=O)[O-])cc2)CC(=O)N(CC23CC4CC(CC(C4)C2)C3)[C@@H]1c1ccc(CO)cc1	-32	-19
C[C@H](CO)N1C[C@H](C)[C@H](CN(C)S(=O)(=O)c2cn(C)cn2)Oc2ccc(NC(=O)CCN3CCOCC3)cc2CC1=O	18	6
OC[C@H]1CC[C@@H]2O[C@H](CCc3ccc(-c4ccccc4)cc3)[C@@H](n3cc(C4CC4)nn3)C[C@@H]2O1	-8	-11
CC(C)C#Cc1ccc([C@@H]2[C@@H](CO)N3C(=O)CN(C(=O)c4ccccn4)C[C@H]23)cc1	-6	-10
CC(C)NC(=O)Nc1ccc2c(c1)C(=O)N([C@H](C)CO)C[C@@H](C)[C@H](CN(C)Cc1ccc(C(F)(F)F)cc1)O2	0	-5

More structures:
molecule	Vaccinia inh	Vaccinia inh Venus
COc1ccc(S(=O)(=O)Nc2ccc3c(c2)C(=O)N([C@H](C)CO)C[C@H](C)[C@@H](CN(C)S(=O)(=O)c2cccs2)OCCCC[C@H](C)O3)cc1	?	/
CN1CCN(C(=O)C[C@@H]2CC[C@@H]3[C@H](COC[C@@H](O)CN3C(=O)Nc3ccc(F)cc3)O2)CC1	5	6
O=C(N[C@@H]1CC[C@@H](CCNS(=O)(=O)c2ccccc2Cl)O[C@@H]1CO)c1ccccc1	8	1
O=C(C[C@@H]1C[C@@H]2c3cc(NC(=O)c4ccc5c(c4)OCO5)ccc3O[C@@H]2[C@H](CO)O1)NCc1cccc(F)c1	13	13
COc1cccc(-c2cnc3c(c2)C(=O)N([C@@H](C)CO)C[C@@H](C)[C@@H](CN(C)C(C)=O)O3)c1	5	-3
CN(C)C(=O)[C@@H]1[C@@H](CO)[C@@H]2Cn3c(ccc(-c4ccccc4)c3=O)[C@@H]2N1C(=O)c1ccccn1	9	4
C[C@@H]1CN([C@@H](C)CO)C(=O)c2cc(NC(=O)Nc3cccc4ccccc34)ccc2O[C@@H](C)CCCCO[C@@H]1CN(C)S(=O)(=O)c1ccc(Cl)cc1	10	3
C[C@@H]1CN([C@@H](C)CO)C(=O)c2cc(-c3cccc(F)c3)cnc2O[C@H]1CN(C)C(=O)Nc1ccccc1F	-2	5
COCC#Cc1ccc([C@H]2[C@@H](CO)N3CCCCN(S(=O)(=O)c4ccccc4F)C[C@H]23)cc1	-10	-20
NCC[C@@H]1CC[C@@H](NC(=O)C2CCCCC2)[C@H](CO)O1	-1	-5
O=C(C[C@@H]1CC[C@@H]2[C@H](COC[C@@H](O)CN2S(=O)(=O)c2ccc(Cl)cc2)O1)NCCN1CCCCC1	4	7
C[C@@H]1CN([C@@H](C)CO)C(=O)Cc2cc(NS(=O)(=O)c3cn(C)cn3)ccc2O[C@@H]1CN(C)Cc1ccc(C(=O)O)cc1	3	5
CC(=O)N(C)C[C@@H]1Oc2ncc(C#C[C@@H](C)O)cc2C(=O)N([C@@H](C)CO)C[C@H]1C	19	4
O=C(C[C@H]1CC[C@@H](NC(=O)Nc2cc(F)ccc2F)[C@@H](CO)O1)Nc1ccccc1	-25	-25
CO[C@H]1CN(C)C(=O)c2cc(NC(=O)Nc3ccc(F)cc3)ccc2OC[C@@H](C)NC[C@H]1C	4	-7

Next section:
Screens in order: Vaccinia inh	Vaccinia inh Venus
CCO[C@@H]1OC(C(=O)N2CCCCCCC2)=C[C@H](C)[C@H]1CCCO
  15	4
COc1cccc(S(=O)(=O)N(C)C[C@H]2OCc3ccccc3-c3ccccc3C(=O)N([C@H](C)CO)C[C@H]2C)c1
  -23	-17
Cc1ccc(S(=O)(=O)Nc2ccc3c(c2)C(=O)N([C@H](C)CO)C[C@@H](C)[C@@H](CN(C)C(=O)Nc2ccc4c(c2)OCO4)OCCCC[C@H](C)O3)cc1
  -6	0
CS(=O)(=O)Nc1ccc2c(c1)[C@H]1C[C@H](CC(=O)NCc3cccc(F)c3)O[C@H](CO)[C@H]1O2
  8	-1
CO[C@@H]1CN(C)C(=O)c2cc(NS(=O)(=O)c3ccccc3C)ccc2OC[C@H](C)NC[C@@H]1C
  0	6
C[C@@H]1CN([C@@H](C)CO)S(=O)(=O)c2ccc(C#CC3CC3)cc2O[C@H]1CN(C)C(=O)CN(C)C
  -3	-5
CCc1csc(N2[C@@H](C#N)[C@@H](c3ccc(-c4cccc(F)c4)cc3)[C@@H]2CO)n1
  -27	-19
CO[C@H]1CN(C)C(=O)c2ccc(NC(=O)c3ccccc3F)cc2OC[C@@H](C)N(C(C)=O)C[C@@H]1C
  6	6
C[C@@H]1CN([C@H](C)CO)C(=O)c2cc(Br)cnc2O[C@H]1CN(C)C(=O)c1cccnc1
  16	7
CC(C)NC(=O)Nc1ccc2c(c1)CC(=O)N([C@@H](C)CO)C[C@@H](C)[C@H](CN(C)Cc1ccccc1)O2
  -5	-10
CC(C)C#Cc1cnc2c(c1)C(=O)N([C@H](C)CO)C[C@H](C)[C@H](CN(C)C(=O)Nc1ccc(F)cc1)O2
  1	-1
Cc1noc(C)c1NC(=O)Nc1ccc2c(c1)C(=O)N(C)[C@H]1CC[C@H](CC(=O)N[C@@H]3CCN(Cc4ccccc4)C3)O[C@H]1CO2
  3	5
COc1cccc(S(=O)(=O)N2C[C@@H]3N[C@H](C2)C3c2ccc(-c3cccc(C(=O)N(C)C)c3)cc2)c1 (stereo not given in full)
  ?	-11
O=C(C1CCC1)N1CC(=O)N2[C@H](C1)[C@H](c1ccc(C#CCc3ccccc3)cc1)[C@@H]2CO
  2	2
COc1ccc(-c2ccc3c(c2)[C@H]2[C@H](CCN2C(=O)NC2CCCCC2)[C@H](CO)N3C)cc1
  ?	/

(listing goes on)
Screens in order: Vaccinia inh	Vaccinia inh Venus
C[C@H](CO)N1C[C@H](C)[C@@H](CN(C)Cc2ccc(Cl)c(Cl)c2)Oc2ccc(NC(=O)Nc3ccc(F)cc3)cc2C1=O
  -13	-4
C[C@H](CO)N1C[C@H](C)[C@H](CN(C)C(=O)Nc2ccccc2F)OCc2cnnn2CCCC1=O
  10	4
CN(C)CC#Cc1ccc([C@@H]2[C@@H](CO)N3C(=O)CN(C(=O)c4ccc(F)cc4)C[C@@H]23)cc1
  10	-1
O=C(C[C@H]1CC[C@@H](NC(=O)C2CC2)[C@H](CO)O1)NC1CCC1
  8	6

Screens as filed in PubChem BioAssay.
